# H5N1 antiviral: MDCK cell protection from H5N1 avian flu; 0.07% of 96,000 active; inhibition, % at 50 µM; cytopathic effect, luminescence, 72 h; hits give high values; no value below 0 was filed and about half of the inactive calls have no number; reference of the scale not given here; in the data active means inhibition above about 25%
# The depositor's hits bear a star; i = inactive. Not all compounds are listed; rates above refer to the full screens.
SMILES,H5N1 antiviral
COCCn1nnnc1C(c1ccc(OC)cc1)N1CCN(c2ccccc2F)CC1 (stereo unspecified),i
O=C(NCCc1ccccn1)c1ccc(COc2ccccc2)o1,i
CCOC(=O)c1[nH]c2cc(OC)c(OC)cc2c1NC(=O)CN(C)C1CCCCC1,i
CC(C)CC(c1nnnn1CC1CCCO1)N1CCN(c2nc3ccccc3s2)CC1 (stereo unspecified),1.2
Cc1cccc(C(=O)NCCN2CCN(c3ccccc3)CC2)c1,0.8
O=C(CSc1nc2ccccc2o1)NCc1ccco1,2.6
O=C1OC(c2ccc(Cl)cc2)=N/C1=C\c1cccnc1,0.1
CCCCC1CCC(C(=O)NCc2ccc3c(c2)OCO3)CC1 (stereo unspecified),i
COc1cccc(CNC(=O)Nc2cccs2)c1,i
O=C(O)CCc1nc2cccnc2n1Cc1ccccc1,i
CC(C)CN1C(=O)c2ccc(C(=O)NCc3ccc4c(c3)OCO4)cc2C1=O,0.9
CC1CCN(C(=O)CSc2nnc(Cc3ccccc3)o2)CC1,2.2
Cc1ccc(Cl)cc1N(Cc1ccc(C(=O)NCc2cccnc2)cc1)S(=O)(=O)c1ccccc1,i
CC1=C(C(=O)NC2CCCCC2C)C2(CCC(C)CC2)OC1=O (stereo unspecified),0.3
OC1CN=C2C=CC=CN2C1 (stereo unspecified),i
CN(CCO)c1c2c(nc3cc(-c4cccc(F)c4)nn13)CCCC2,1.8
O=C1C2CCN(CC2)C1Cc1ccc(OCCOc2ccccc2)cc1 (stereo unspecified),i
COCCCNc1nc(-c2ccncc2)nc2ccccc12,1.2
CCc1cccc(CC)c1NC(=O)c1cccc(N)c1,0.8
CCN1C(=O)C(CC(=O)Nc2cc(C)ccc2C)SC1=Nc1ccc(S(N)(=O)=O)cc1 (stereo unspecified),i
COc1oc(-c2ccccc2C)nc1C(F)(F)F,i
COC(=O)CNC(=O)c1c(-c2c(Cl)cccc2Cl)noc1C,0.5
NC(=O)c1oc2ccccc2c1NC(=O)C1CCCCC1,i
COC(=O)CCSCc1cn2cc(Cl)ccc2n1,i
Clc1cccc(/C=N\Nc2nccs2)c1,i
COc1ccc(C(=O)Nc2cccc(-c3nc4ncccc4o3)c2C)cc1OC,0.9
O=C(C1COc2ccccc2O1)N1CCN(c2ccccc2)CC1 (stereo unspecified),i
CC(C)C(NC(=O)OCc1ccccc1)C(=O)OCC(=O)N1CCCCC1 (stereo unspecified),0.5
Cc1cc(C)cc(N(CCC#N)C(=O)CSc2nc3nc(C)cc(C)n3n2)c1,0.6
Cc1cccc(C)c1OCCCCn1cnc2ccccc2c1=O,i
COc1cc(C(=O)Nc2cccc(-c3nc4ncccc4o3)c2C)cc(OC)c1OC,0.6
CCOC(=O)c1cc(-c2nnc(-c3ccc(Cl)cc3)o2)c(C)nc1C,0.3
CCOC(=O)c1cc2c(n(-c3ccc(C)cc3)c1=O)CCCC2=O,1.1
Cn1cc(C(=O)c2ccc(Cl)cc2Cl)cc1C(=O)N/N=C(\N)COc1cccc(C(F)(F)F)c1,3.6
COC(=O)c1cccc(NS(C)(=O)=O)c1C,i
O=C(NCc1ccncc1)Nc1cccc(Cl)c1,0.5
CC1CCN(C(=O)Cn2nc(C(F)(F)F)c3c2CCCC3)CC1,i
CCCS(=O)(=O)Nc1cc(C(F)(F)F)ccc1OCCOC,0.9
COc1ccc(C)c2sc(N3CCCC3)nc12,i
CCSc1nnc(NC(=O)CCc2ccccc2)s1,i
Cc1ccc(C)n1-n1cnc2scc(-c3cccs3)c2c1=O,i
CC1CN(c2ccc(Oc3ccccc3)cc2)c2nc3c(c(=O)[nH]c(=O)n3C)n2C1 (stereo unspecified),1.3
Cc1noc(C)c1S(=O)(=O)N1CCC(C(=O)NCCc2ccc(S(N)(=O)=O)cc2)CC1,0.3
Cc1ccc(N=C2SCCCN2C(=O)c2ccco2)cc1Cl,0.0
O=C(NCc1ccco1)c1cccnc1-c1nc2ccccc2s1,3.4
FC(F)Oc1ccccc1C1CC(c2ccc(Br)s2)Nc2ncnn21 (stereo unspecified),2.0
Cc1nc(-c2coc3cc(OCC(=O)O)ccc3c2=O)cs1,i
O=C1COc2ccc(C(=O)c3ccccc3C(=O)NCc3ccco3)cc2N1,0.7
COc1ccc(NC(C)C(=O)Nc2ccc(C#N)cc2)cc1Cl (stereo unspecified),0.2
Cc1ccc(SCC(=O)NNC(=O)C2CCCCC2)cc1,0.1
# More compounds follow:
SMILES,H5N1 antiviral
CCN(Cc1ccccc1)C(=O)CCc1nc(-c2ccc(C)cc2)no1,1.3
CC(=O)C1=C(O)C(=O)N(Cc2cccnc2)C1c1ccccc1Cl (stereo unspecified),0.1
COc1ccc(NC(=O)COC(=O)CCCc2c[nH]c3ccccc23)cc1OC,i
CCOC(=O)Cc1csc(SCc2nc3ccccc3c(=O)[nH]2)n1,0.3
Cc1[nH]n(-c2ccccc2)c(=O)c1C1(C(F)(F)F)C(=O)N(c2ccccc2)C2=C1C(=O)CC(C)(C)C2 (stereo unspecified),0.4
CCOc1cc(C#N)c(NC(=O)c2cccnc2)cc1OCC,i
O=C(NC1(C(=O)NC2CCCC2)CCCCC1)c1ccc2c(c1)OCO2,i
CCOC(=O)C(C)Oc1cccc2c(=O)n(CC(=O)N3CCc4ccccc43)ccc12 (stereo unspecified),0.5
COc1ccc(-c2ccc(C#N)c(OC(=O)c3c(Cl)cccc3Cl)n2)cc1,i
C=C1C(C(=O)N2CCN(C)CC2)C1C(=O)N1CCN(C)CC1 (stereo unspecified),0.7
CSc1nc(C)cc(/C=C\c2ccccc2)c1C#N,i
COc1ccc(CCn2c(O)c(C=NCCCN(C)C)c(=O)[nH]c2=O)cc1OC,0.7
O=S(=O)(NC1CCCC1)c1ccc(S(=O)(=O)NC2CCCC2)cc1,i
CC(=O)NCCCc1c[nH]c2ccc(Cl)cc12,i
O=S(=O)(Nc1ccc2oc(-c3ccccc3)nc2c1)c1ccccc1,i
Cc1ccc(C(=O)Nc2ccc(Cl)cn2)cc1S(=O)(=O)N1CCOCC1,i
C=CCNC(=O)c1onc(CSc2ccc(C)c(C)c2)c1C(=O)O,i
CCCCOC(=O)C1=C(C)NC2=C(C(=O)CCC2)C1c1cc(OC)ccc1OC (stereo unspecified),0.9
O=C(Cn1cnc2c(cnn2-c2ccccc2)c1=O)N1CCN(c2ccc(F)cc2)CC1,i
Cc1cc(O)c(C(C)C)cc1N=C1CSC(=O)N1,1.2
CCc1nnc(NC(=O)COC(=O)CN2C(=O)c3ccccc3C2=O)s1,i
CC1CCc2nn(CC(=O)NCCCN3CCCCC3)cc2C1 (stereo unspecified),i
Cc1cccc(C)c1NC(=O)CSc1nnc([C@@H]2CCCN2C(=O)OC(C)(C)C)o1,i
CC1(C)CC(=NO)CC(C)(C)N1,i
Cc1ccc(C)c(NC(=S)NNC(=O)c2csc3c2CCC(C)C3)c1 (stereo unspecified),i
CCCN1CC=C2C(C#N)=C(N)C(C#N)(C#N)C(c3cccc(OC)c3OC)C2C1 (stereo unspecified),1.0
CC(C)COC(=O)N1CC(O)CC1C(=O)O (stereo unspecified),i
O=C(CSC(=S)N1CCOCC1)Nc1nc(-c2ccccc2)c(-c2ccccc2)o1,0.8
O=C(Nc1ccc2c(c1)OCO2)[C@@H]1[C@@H]2C(=O)N(C3CCCCC3)C(=O)[C@@H]2C2c3ccccc3C=CN21 (stereo partly specified),i
CS(=O)(=O)N(CCc1ccccc1)CC(=O)NCc1ccco1,0.3
CCn1c(C(=O)N2CCCC(C(=O)NCCc3ccc(C)cc3)C2)cc2sccc21 (stereo unspecified),i
Cc1cc(C)c(C#N)c(SCC(=O)Nc2ccc3c(c2)OCO3)n1,0.7
COCC(=O)NC1CCN(S(=O)(=O)c2ccc(C(=O)O)cc2)CC1,0.3
COc1ccc(C(C)N2CC34C=CC(O3)C(C(=O)O)C4C2=O)cc1 (stereo unspecified),i
N#Cc1c(NC(NC(=O)c2ccco2)C(=O)c2ccccc2)sc2c1CCCC2 (stereo unspecified),i
CCCn1c(=O)c2c(c3ccccc31)OCC(=O)N2,0.4
CCc1ccccc1NC(=O)Cn1nnc(-c2cccs2)n1,i
Cn1nc(C(F)(F)F)c(/C=N/OC(=O)c2ccccc2)c1Sc1ccc(Cl)cc1,1.2
COc1ccc(N2CCN(C(=O)CCNS(=O)(=O)c3ccc4c(c3)CCC(=O)N4)CC2)cc1,0.3
C=CCn1c(SCC(=O)Nc2ccc(C)cc2C)nnc1-c1cccnc1,i
CCN(CC)C(=O)Sc1cccc2cccnc12,6.3
O=C(NCC1CCCO1)c1ccc(NC(=O)C2CCCCC2C(=O)O)cc1 (stereo unspecified),i
CC1CCN(CC(O)COC2CCC(C(C)(C)C)CC2)CC1 (stereo unspecified),i
CC(=O)c1cnc(SCCN2C(=O)c3ccccc3C2=O)nc1C,0.3
COc1ccc(CCNc2nc(-c3sc(N)nc3C)cs2)cc1OC,i
O=C(CN(CCc1ccccc1)C(=O)CNS(=O)(=O)c1ccc(F)cc1)NCc1ccco1,1.3
N#CCCN1CCN(C(=S)c2ccc(-c3cc(Cl)ccc3Cl)o2)CC1,i
COc1cccc(/C=N/NC(=O)CSCC(=O)Nc2ccccc2)c1O,i
O=C(CSc1nc(C2CC2)nc2ccccc12)N1c2ccccc2Sc2ccc(C(F)(F)F)cc21,6.9
CCC(C)[C@H](NC(=O)NCc1ccccn1)C(=O)OC (stereo partly specified),i

# 17 consecutive compounds already listed, quoted:
SMILES,H5N1 antiviral
CCn1c(C(=O)N2CCCC(C(=O)NCCc3ccc(C)cc3)C2)cc2sccc21 (stereo unspecified),i
Cc1cc(C)c(C#N)c(SCC(=O)Nc2ccc3c(c2)OCO3)n1,0.7
COCC(=O)NC1CCN(S(=O)(=O)c2ccc(C(=O)O)cc2)CC1,0.3
COc1ccc(C(C)N2CC34C=CC(O3)C(C(=O)O)C4C2=O)cc1 (stereo unspecified),i
N#Cc1c(NC(NC(=O)c2ccco2)C(=O)c2ccccc2)sc2c1CCCC2 (stereo unspecified),i
CCCn1c(=O)c2c(c3ccccc31)OCC(=O)N2,0.4
CCc1ccccc1NC(=O)Cn1nnc(-c2cccs2)n1,i
Cn1nc(C(F)(F)F)c(/C=N/OC(=O)c2ccccc2)c1Sc1ccc(Cl)cc1,1.2
COc1ccc(N2CCN(C(=O)CCNS(=O)(=O)c3ccc4c(c3)CCC(=O)N4)CC2)cc1,0.3
C=CCn1c(SCC(=O)Nc2ccc(C)cc2C)nnc1-c1cccnc1,i
CCN(CC)C(=O)Sc1cccc2cccnc12,6.3
O=C(NCC1CCCO1)c1ccc(NC(=O)C2CCCCC2C(=O)O)cc1 (stereo unspecified),i
CC1CCN(CC(O)COC2CCC(C(C)(C)C)CC2)CC1 (stereo unspecified),i
CC(=O)c1cnc(SCCN2C(=O)c3ccccc3C2=O)nc1C,0.3
COc1ccc(CCNc2nc(-c3sc(N)nc3C)cs2)cc1OC,i
O=C(CN(CCc1ccccc1)C(=O)CNS(=O)(=O)c1ccc(F)cc1)NCc1ccco1,1.3
N#CCCN1CCN(C(=S)c2ccc(-c3cc(Cl)ccc3Cl)o2)CC1,i

# New compounds follow:
SMILES,H5N1 antiviral
COC(=O)c1cc(OC)c(OC)cc1N=CC1=C(O)CC(C)(C)CC1=O,0.3
COCC(=O)N1CCC(n2nnc3cc(F)ccc32)CC1,0.1
CS(=O)(=O)NCc1ccc(C(=O)NC2CCCCC2)cc1,0.3
CCC(C(=O)O)n1nnc(-c2ccc(-c3ccc(OC)cc3)cc2)n1 (stereo unspecified),i
COc1cccc(OCC(=O)NN=C2c3ccccc3-c3ccccc32)c1,2.0
Clc1ncn(C23CC4CC(CC(C4)C2)C3)n1,1.0
COc1ccc(OC)c(C2C(C(=O)c3cccs3)=C(O)C(=O)N2c2cc(C)on2)c1 (stereo unspecified),1.8
COc1cccc(CNC(=O)N[C@@H](CC(C)C)C(=O)O)c1,i
Cc1cc(=O)oc(C)c1C(=O)N1CCN(Cc2ccc3c(c2)OCO3)CC1,i
Cc1ccc(-c2nnn(Cc3nc(N)nc(N4CCOCC4)n3)n2)cc1,0.5
COc1ccc(N2CCN(CCCNC(=O)C3(S(=O)(=O)c4ccc(Cl)cc4)CC3)CC2)cc1,i
Cc1nn(Cc2ccccc2)c(C)c1C(=O)Nc1ccc(N2CCOCC2)cc1,i
O=C(NC(Cc1ccc2c(c1)OCO2)C(=O)NC(Cc1ccccc1)C(=O)O)c1ccccc1 (stereo unspecified),1.0
O=c1cc(CSc2nnnn2-c2ccccc2)nc2scc(-c3ccccc3)n12,0.3
COC(=O)C(Cc1c[nH]c2ccccc12)NC(=O)CNC(C)=O (stereo unspecified),0.1
O/N=C1\CCCc2nnc3c(c21)CCCC3,i
O=C(COC(=O)C1=COCCO1)Nc1cccc(Oc2ccccc2)c1,0.2
CC1=C(C#N)C(NC(=O)c2ccc(C)cc2)(C(F)(F)F)C(=O)N1 (stereo unspecified),i
c1cnc(NC2C3CC4CC(C3)CC2C4)nc1 (stereo unspecified),i
COc1ccc(-c2noc(CCC(=O)NCc3cc(Br)ccc3OC)n2)cc1,1.1
Cc1cc(C)c(S(=O)(=O)NCc2cn3c(C)csc3n2)cc1C,0.8
Cc1ccccc1Cn1ccc(NC(=O)c2cc3nc(-c4ccco4)cc(C(F)(F)F)n3n2)n1,i
CC(C)CC(c1nnnn1C1CCCCC1)N1CCN(c2ncccn2)CC1 (stereo unspecified),1.4
Cc1ccc(C(=O)N/C(=C\c2ccco2)C(=O)NCCCn2ccnc2)cc1C,0.7
O=C(Cn1c(C(F)(F)F)nc2ccccc21)NCCN1CCCC1,0.1
O=S(=O)(c1cccc2nsnc12)N1CCN(C/C=C\c2ccccc2)CC1,0.3
Cc1cc(NC(=O)CSc2nc3c([nH]c4ccccc43)c(=O)n2-c2cccc(C(F)(F)F)c2)no1,i
Cc1cccc(OCC(=O)Nc2cccc(O)c2)c1,i
CC(C)C(=O)OCC(=O)Nc1ccc2c(c1)CCC2,1.9
COCCN1Cc2cccc(C(=O)Nc3cc(OC)ccc3OC)c2C1=O,0.7
FC(F)(F)c1cccc(-n2cccc2/C=N/n2cnnc2)c1,0.4
COC(=O)C(Nc1ccccc1Cl)(c1cc(C)c(O)c(C)c1)C(F)(F)F (stereo unspecified),0.7

# Reformatted as tab-separated lines: part of the list above
mol	H5N1 antiviral
Cc1cc(C)c(S(=O)(=O)NCc2cn3c(C)csc3n2)cc1C	0.8
CC(C)CC(c1nnnn1C1CCCCC1)N1CCN(c2ncccn2)CC1 (stereo unspecified)	1.4

# Screens (PubChem)
